High-throughput results (PubChem)
HCMV UL50-53 inh: inhibitors of HCMV UL50-UL53 nuclear egress complex interaction | HTRF UL50-UL53 interaction, normalized percent inhibition | inhibition, % (no concentration beside the values) | actives 0.15% (n = 190,000) | AID 1918969;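 active = both replicates at 50% or more, plus weaker picks with an unusually low signal ratio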;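 note: stock transfer was 100 nL into about 20 µL; 0% = negative control wells and 100% = wells with untagged competitor protein; inactives centre near -12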
GIV-Gai inh: GIV-Galpha-i interaction inhibition; P08753; Galpha-i3/FITC-GIV peptide fluorescence polarization, 90 min; active compounds read low; scaled: aluminum fluoride 0%, vehicle 100%; percent of control (FP), % (test concentration not listed); actives 0.42% (n = 210,000);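 active = replicate mean at 85% of control or lower, very high polarization wells dropped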;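 note: lower values mean more displacement of the GIV peptide from Galpha-i3; wells of about 15 µL received 100 nL stock; the first replicate is given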
Target sequence (P08753 whole entry, looked up): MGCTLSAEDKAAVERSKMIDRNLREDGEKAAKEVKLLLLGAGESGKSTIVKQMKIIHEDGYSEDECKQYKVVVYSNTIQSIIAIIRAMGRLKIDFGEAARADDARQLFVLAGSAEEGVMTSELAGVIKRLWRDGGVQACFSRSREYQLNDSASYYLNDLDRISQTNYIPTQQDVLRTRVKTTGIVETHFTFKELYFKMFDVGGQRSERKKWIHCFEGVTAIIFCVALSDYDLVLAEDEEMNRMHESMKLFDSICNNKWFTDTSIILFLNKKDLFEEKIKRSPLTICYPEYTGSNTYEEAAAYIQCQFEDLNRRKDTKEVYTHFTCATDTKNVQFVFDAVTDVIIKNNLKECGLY
Sa growth inh: inhibitors of Staphylococcus aureus growth at 42 °C | S. aureus RN4220 growth, OD600, 20 h; active compounds read low | relative growth, % (concentration not given with the values) | actives 0.53% (n = 170,000);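 active = growth at 42 °C up to 50% and 20 or more points under that at 30 °C, or under 10% at both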;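 note: 300 nL library stock went into each well; scaled to the means of positive and negative controls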
Sa growth inh second temp: also measured in Sa growth inh; calls as there; relative growth, %; measured here: growth at 30 °C;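 optical density after 20 h as mean of two plates; 100% = untreated growth and lower means inhibition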
An asterisk follows results filed as active; nt = no result given.

(1) N#CC1=CN(Cc2ccccc2)C=C(C=Nc2ccccc2)C1
(2) CSc1ncc(C(=O)Nc2ccccc2N2CCN(C)CC2)n1-c1ccccc1
(3) COC(=O)CN(c1cccc2ccccc12)S(C)(=O)=O
(4) O=C(O)c1ccccc1C(=O)Nc1cccc(Cl)c1
(5) O=C(O)CSCC(=O)Nc1cccc(F)c1C(=O)O
(6) COC(=O)c1ccccc1NC(=O)CSc1nnc(-c2sc3ccccc3c2Cl)o1
(7) Cc1cccc(-c2noc(-c3cn(Cc4ccc(NC(=O)c5ccc6c(c5)OCO6)cc4)cn3)n2)c1
(8) CCC(=O)Nc1ccc(C(=O)OCC(=O)C(C)(C)C)cc1

| Compound | 1 | 2 | 3 | 4 | 5 | 6 | 7 | 8 |
| --- | --- | --- | --- | --- | --- | --- | --- | --- |
| Sa growth inh second temp | 88 | 95 | 84 | 87 | 88 | nt | nt | 95 |
| GIV-Gai inh | nt | nt | 103 | 95 | 99 | 98 | 109 | 105 |
| Sa growth inh | 74 | 91 | 108 | 92 | 90 | nt | nt | 105 |
| HCMV UL50-53 inh | -56 | -4 | nt | -20 | -28 | -21 | -37 | -8 |

(9) O=C(NC1CCCCC1)N1CCCC1c1ccccc1F (stereo unspecified)
(10) Oc1ccccc1-c1nc(-c2cccs2)c(-c2cccs2)[nH]1
(11) Clc1cccc(N2CCN(c3nnc4n3CCCCC4)CC2)c1
(12) COc1ccc(CCCC(=O)NN=Cc2ccco2)cc1
(13) COC(=O)c1c(O)cc(=O)n2c1CCCCC2
(14) Cc1[nH]c(=O)[nH]c(=O)c1NC(=O)c1ccccc1
(15) Cc1nc2c(c(SCC(=O)Nc3nc(-c4ccccc4)cs3)n1)CCC2
(16) CN=C(Nc1cccc(C(F)(F)F)c1)c1ccncc1

| Compound | 9 | 10 | 11 | 12 | 13 | 14 | 15 | 16 |
| --- | --- | --- | --- | --- | --- | --- | --- | --- |
| Sa growth inh second temp | nt | 75 | 90 | 96 | 95 | 79 | nt | nt |
| GIV-Gai inh | 102 | 102 | 100 | 103 | nt | 103 | 105 | 107 |
| Sa growth inh | nt | 80 | 90 | 101 | 88 | 101 | nt | nt |
| HCMV UL50-53 inh | 12 | -8 | -6 | -29 | 10 | -9 | -10 | 15 |

Some entries already given, reduced to Sa growth inh, HCMV UL50-53 inh and Sa growth inh second temp:
item | smiles | Sa growth inh | HCMV UL50-53 inh | Sa growth inh second temp
10 | Oc1ccccc1-c1nc(-c2cccs2)c(-c2cccs2)[nH]1 | 80 | -8 | 75
12 | COc1ccc(CCCC(=O)NN=Cc2ccco2)cc1 | 101 | -29 | 96
9 | O=C(NC1CCCCC1)N1CCCC1c1ccccc1F (stereo unspecified) | nt | 12 | nt
14 | Cc1[nH]c(=O)[nH]c(=O)c1NC(=O)c1ccccc1 | 101 | -9 | 79
16 | CN=C(Nc1cccc(C(F)(F)F)c1)c1ccncc1 | nt | 15 | nt
11 | Clc1cccc(N2CCN(c3nnc4n3CCCCC4)CC2)c1 | 90 | -6 | 90
13 | COC(=O)c1c(O)cc(=O)n2c1CCCCC2 | 88 | 10 | 95

Molecules shown so far with an NH in an aromatic ring:
(10) Oc1ccccc1-c1nc(-c2cccs2)c(-c2cccs2)[nH]1
(14) Cc1[nH]c(=O)[nH]c(=O)c1NC(=O)c1ccccc1

| Compound | 10 | 14 |
| --- | --- | --- |
| Sa growth inh second temp | 75 | 79 |
| GIV-Gai inh | 102 | 103 |
| Sa growth inh | 80 | 101 |
| HCMV UL50-53 inh | -8 | -9 |

Other entries follow:
(17) O=C(O)c1ccccc1SCC(=O)N1CCN(Cc2ccccc2)CC1
(18) O=C(O)CSc1ncnc2ccccc12
(19) COc1ccc(-n2c(SCC(N)=O)nc3sc4c(c3c2=O)CCCCC4)cc1
(20) CCOc1ccc(NC(=O)CSc2nc3ccsc3c(=O)n2C(C)CC)cc1 (stereo unspecified)
(21) COC(=O)CCn1c(=O)c2cccn2c2cccnc21
(22) CC1=NCCN1CCNC(=O)Nc1ccc(C(C)(C)C)cc1

| Compound | 17 | 18 | 19 | 20 | 21 | 22 |
| --- | --- | --- | --- | --- | --- | --- |
| Sa growth inh second temp | 90 | 83 | nt | 88 | 90 | 94 |
| GIV-Gai inh | nt | nt | 102 | 101 | 106 | 103 |
| Sa growth inh | 95 | 99 | nt | 92 | 102 | 117 |
| HCMV UL50-53 inh | -7 | -12 | -14 | nt | -4 | -8 |
